Compound activity (PubChem BioAssay)
ClpP mod: qHTS Assay for Activators of ClpP; ATP-dependent Clp protease proteolytic subunit (Bacillus subtilis (strain 168)), P80244; purified B. subtilis ClpP, FRET peptide cleavage, 20 min; Potency, µM (titrated, usually from 57.5 µM), for the others: at the highest dose activity change, negative = active; 1.9% of 340,000 active; AID 651965, 2013; active = well fitted falling curve with a large enough effect; inconclusive = small, poorly fitted or top-dose-only effect; inactive = no such curve, though single readings can be large or run the other way; further: potency means the concentration at half of the fitted maximal effect; the source files actives as falling curves though it sought activators and does not explain the sign; nearly all actives have a fitted effect of over 65% in size; many hits overshoot -100%
Target sequence (P80244 whole entry, looked up): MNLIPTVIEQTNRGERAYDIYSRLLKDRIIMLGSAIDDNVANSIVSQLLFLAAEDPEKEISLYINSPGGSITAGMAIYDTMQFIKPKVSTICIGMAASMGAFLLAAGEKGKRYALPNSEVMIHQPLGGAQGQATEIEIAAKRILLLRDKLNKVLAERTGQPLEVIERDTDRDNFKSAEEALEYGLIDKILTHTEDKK
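Buffer: 100 mM Tris/HCl pH8, 100 mM KCl, 0.05% low protease BSA, 2.5% glycerol, 0.01% Tween-20. ClpP 10 microg/mL final; 20 min RT; delta FRET normalized to ADEP and DMSO controls.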
gsp agonist: gsp mutant agonism; gsp mutant cells, cAMP HTRF, 30 min; control for the full effect not named in the record; Potency, µM (doses to about 76.9 µM), inactives show at the top dose activation (cAMP increase), actives largely listed as activators; 0.13% of 340,000 active; AID 624287; active = well fitted activation curve with a large enough effect; inconclusive = small, poorly fitted or top-dose-only effect, or another doubt; inactive = no such curve, though single readings can be large or run the other way; cell line not stated here;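 further: phosphodiesterase inhibitor Ro 20-1724 added with compounds to block cAMP breakdown; potency means the concentration at half of the fitted maximal effect; nearly all actives have a fitted effect of over 60% in size; about a fifth of the inactives were tested at one dose only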
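Cells stably selected in G418 were plated at 2000/well, grown 16-24 hr, then given compounds in DMSO with the PDE inhibitor […] (300 uM solution added) for 30 min at 37C; cAMP was read by HTRF.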
TRPML1 inh: human mucolipin-1 channel inhibition; Q9GZU1; TRPML1-inducible cells, Ca2+ dye fluorescence, FDSS; stronger effect = lower value; inhibition of EC80 agonist-evoked calcium signal; activity change, negative = inhibition, % (no concentration beside the values); 0.02% of 390,000 active; in the data active means activity change below about -50%; inconclusive means about -30% to -50%; inactive means above about -30%;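 further: stimulus is agonist 54-4 at its EC80 concentration; on the % scale 0 is the no-effect control and ±100 the full control effect; compound concentration not given in the record; the text of the record puts the active cut at -80%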
Target sequence (Q9GZU1 whole entry, looked up): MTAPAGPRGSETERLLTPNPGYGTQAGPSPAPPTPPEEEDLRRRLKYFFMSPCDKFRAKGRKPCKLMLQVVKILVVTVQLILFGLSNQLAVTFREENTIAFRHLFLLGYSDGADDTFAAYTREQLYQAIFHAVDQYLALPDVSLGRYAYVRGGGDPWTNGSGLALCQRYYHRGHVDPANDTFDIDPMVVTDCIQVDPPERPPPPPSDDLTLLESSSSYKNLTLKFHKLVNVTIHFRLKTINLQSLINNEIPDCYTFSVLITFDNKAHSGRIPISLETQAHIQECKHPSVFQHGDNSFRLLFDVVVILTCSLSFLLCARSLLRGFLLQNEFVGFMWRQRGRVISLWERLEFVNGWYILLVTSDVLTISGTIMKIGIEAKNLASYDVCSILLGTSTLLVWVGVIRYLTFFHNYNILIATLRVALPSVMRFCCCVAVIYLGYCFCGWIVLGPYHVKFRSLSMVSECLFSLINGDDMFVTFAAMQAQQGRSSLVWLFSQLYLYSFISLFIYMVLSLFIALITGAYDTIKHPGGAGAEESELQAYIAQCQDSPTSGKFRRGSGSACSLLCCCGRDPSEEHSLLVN
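Calcium fluorescence in TRPML1-DL cells induced overnight with Tet: a 110 s read after compound pin addition, then a 110 s antagonist read after challenge with 54-4 at 4 uM final (EC80).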
Sfp PPTase inh: inhibitors of Bacillus subtilis Sfp phosphopantetheinyl transferase; 3.5% of 310,000 active; Biochemical Sfp PPTase activity, qHTS; Q9F4F7; AID 1490; Potency, µM, without a hit: max response, negative = inhibition, hits mostly inhibitors; active means well fitted inhibition curve with a large enough effect; inconclusive means small, poorly fitted or top-dose-only effect, or another doubt; inactive means no such curve, though single readings can be large or run the other way;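 further: the enzyme is Sfp with the accession as filed and its product quenches rhodamine fluorescence; potency means the concentration at half of the fitted maximal effect; 0% = enzyme reaction without inhibitor and -100% = no enzyme wells; top concentration of the series not given in the record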
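Fluorescence-quenching assay with 15 nM Sfp, 5 uM rhodamine-CoA and 12.5 uM BHQ-2-labelled ybbR peptide in pH 7.6 Hepes/MgCl2 buffer. Enzyme was pre-incubated with compound for 15 min at room temperature. Rate was taken from the 30-min fluorescence change (525/598 nm).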
TRPV1 PAM: enhances activation of the human vanilloid receptor TRPV1; Q8NER1; TRPV1-expressing cells, Fluo-8 calcium influx, capsaicin EC20 potentiation; host cell line not named in the record; control for the full effect not named in the record; potentiation, % at 8.33 µM; 0.02% of 320,000 active; AID 540277; active means potentiation above 80%; inconclusive means 30% to 80%; inactive means below 30%; further: 0% is about no effect
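Cells expressing TRPV1 were dye-loaded with Fluo-8 and read kinetically: 10 s baseline, 3 min after compound (agonist portion), then 2 min after EC20 capsaicin (allosteric enhancer portion). Calcium-bound dye fluorescence at 480/520 nm.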
Menin-MLL FL inh: displaces fluorescein MLL peptide from human menin; 290,000 tested, under 10 active; FP activity change, % at 61.4 µM; Fluorescence polarization, fluorescein-MLL peptide displacement from menin; inconclusive = falling polarisation curve, or a change in total fluorescence; inactive = total fluorescence flat and polarisation flat or rising; no compound was filed as active; the % refers to the polarisation; negative = inhibition;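 further: % of control where 0% means no effect; inhibitors lower the polarisation; unlabelled MLL peptide was the positive control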
gsp antagonist: gsp mutant antagonism; gsp-mutant cells, cAMP HTRF, 30 min; control for the full effect not named in the record; Potency, µM (doses to about 76.9 µM), for the others: top-dose activity change, negative = inhibition, usual class: inhibitors; 0.4% of 340,000 active; active = falling curve of any shape with a large fitted effect; inconclusive = falling curve, mostly with a smaller effect; inactive = flat or rising curve; cell line not stated here;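 further: intracellular cAMP measured with PDE inhibitor Ro 20-1724 present during compound exposure; potency means the concentration at half of the fitted maximal effect; on the % scale 0 is the no-effect control and ±100 the full control effect; nearly all actives have a fitted effect of over 65% in size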
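Measurement of cellular cAMP by homogeneous time-resolved fluorescence following a 30 min compound exposure at 37C. The PDE inhibitor […] was present throughout; the assay buffer was DPBS with 0.05% BSA and 0.005% Tween 20.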
Numbers without * were called inactive; ? = inconclusive; nt = not tested or not shown; [ ] = another dose, or the depositor's remark. Rows were taken by chance. About 4.9% of those tested had a hit in this group.

SMILES	ClpP mod	gsp agonist	TRPML1 inh	Sfp PPTase inh	TRPV1 PAM	Menin-MLL FL inh	gsp antagonist
COC(CNC(=O)C1CCCCC1C(=O)O)OC (centres undefined)	0.6%	?	29	11%	1	-3.9	15%
Cc1oc(-c2ccccc2)cc1C(=O)Nc1cccc2ccccc12	-2.0%	-3%	-11	12%	-1	4.4	4%
COC/C=C/C1=CC2=CC(=O)C(C)(OC(=O)c3cnc4ccccc4n3)C(=O)C2=CN1CCOC (centres undefined)	0.1%	nt	13	18%	nt	-3.6[11.7 µM]	-10%
O=C(COc1ccc(S(=O)(=O)NCc2ccccc2)cc1)NCC1CCCO1 (centres undefined)	0.4%	-50%[inhibitor]	2	10%	2	-3.0	8%
Cc1cc(C(=O)COc2cccnc2[N+](=O)[O-])c(C)n1Cc1ccco1	1.4%	0%[15.4 µM]	34	?	-8	-0.8	0%
Cc1ccccc1OCC(=O)NNC(=O)CN1C(=O)c2ccccc2C1=O	-0.6%	24%	6	26%	-8	-0.7	7%
Clc1cccc(N2CCN(CCNc3nc4ccccc4n4cnnc34)CC2)c1	-1.2%	-40%[inhibitor]	3	18%	6	-1.0	1%
Cc1ccc(NCc2nnc3n2CCCCC3)cc1	-2.1%	-2%	4	-3%	2	-0.8	1%
CC12CN(C(=O)c3cccc([N+](=O)[O-])c3)C3(C#N)CC1CCC23C (centres undefined)	-1.9%	?	-5	-5%	1	-2.5	6%
CC1=CC(C2CC(=O)N(c3ccc(C)cc3)C2=O)CC2C(=O)N(c3ccc(C)cc3)C(=O)C12 (centres undefined)	nt	24%[15.4 µM]	-9	2%	6	-5.0	-15%
O=[N+]([O-])c1cc(S(=O)(=O)C(F)(F)F)ccc1Sc1nc2ccccc2[nH]1	25µM*	-29%	1	18%	-8	-0.1	-19%
CCn1c(SCC(=O)Nc2cccc(OC)c2)nnc1-c1ccc(Cl)cc1	-0.4%	-7%	7	0%	-7	2.4	-16%
Cc1ccc(NC(=O)CN(C)C(=O)CCC(=O)c2cccs2)cc1	1.5%	-8%[15.4 µM]	0	15%	-4	5.2	-12%
CC(=O)NC(NC(C)=O)c1ccc(Br)cc1	-1.1%	-44%[inhibitor]	42	-2%	8	0.3	14%
Cc1ccccc1-n1c(SCC(=O)Nc2cccc3ccccc23)nc(O)cc1=O	-2.7%	-36%	14	12%	4	2.6	-15%
Cc1ccc(NC(=O)COc2cccc(-n3cnnn3)c2)cc1[N+](=O)[O-]	nt	2%	-3	-12%	15	-2.3	-9%
CC(C)Cc1ccc(C(C)NC(=O)Cc2ccc(S(=O)(=O)N3CCOCC3)s2)cc1 (centres undefined)	1.1%	-8%	2	nt	-6	nt	-16%
COc1cc(OC)cc(C(=O)NCC(=O)OCC(=O)NC2CCCc3ccccc32)c1 (centres undefined)	1.1%	-6%	39	nt	nt	nt	-15%
COc1cc(C(=O)Nc2ccc(C(=O)O)cc2)ccc1OC(C)=O	0.7%	-12%	-8	15%	3	2.7	4%
CCOC(=O)c1ccc(NC(=O)c2nc[nH]c2C(=O)N[C@H](C)c2ccccc2)cc1	?	5%	-2	9%	3	-1.7	-3%
CC(OC(=O)Cc1coc2cc3c(cc12)CCC3)C(=O)NCc1ccc2c(c1)OCO2 (centres undefined)	0.1%	9%	-2	12%	-10	0.8	?
CCCOc1cccc(C(=O)NC(=S)Nc2cccc(NC(=O)c3ccccc3Cl)c2)c1	-6.0%	13%	14	27%	-12	6.1	5%
CSc1nc(N)c(C(=O)N(c2ccccc2)c2ccccc2)s1	-1.5%	0%	12	nt	nt	nt	nt
CCC(C)NC(=O)c1ccccc1SC (centres undefined)	nt	-1%[15.4 µM]	9	15%	1	-4.8	-17%
C/C(=N\NC(=S)Nc1c(C)cccc1C)c1ccc(O)cc1	-2.5%	-2%	nt	-23%	13	3.7	-19%
CSc1cccc(NC(=O)C2C3C=CC4(O3)C2C(=O)N(CCCN2CCOCC2)C4C(=O)NC2CCCCC2)c1 (centres undefined)	nt	27%	-13	-5%	4	-2.1	3%
O=C(NCc1ccccc1)Nc1cccn(Cc2ccc(Cl)cc2)c1=O	-26%	-9%	-2	-2%	-8	5.2	8%
O=C(Nc1nccs1)c1ccc(-c2ccc([N+](=O)[O-])cc2)o1	nt	-5%[15.4 µM]	5	25µM*	15	?	-16%
O=C(Cc1ccccc1F)Nc1nc(-c2cccs2)cs1	-2.9%	-33%	-11	1%	-2	2.2	-27%
COc1ccccc1C=NN=C1c2ccccc2-c2ccccc21	-3.1%	12%	19	nt	nt	nt	9%
CCOC(=O)c1sc(NC(=O)CN2CCCC2)c(C(=O)OCC)c1C	-1.4%	-4%	13	1%	-2	4.9	-13%
O=C(CCN1C(=O)[C@H]2CC=CC[C@H]2C1=O)NCc1nc(-c2ccccc2)no1	-4.3%	7%	-3	-11%	5	nt	2%
O=C(Nc1cccc(-c2cc3ccccc3oc2=O)c1)c1ccc(Br)o1	35µM*	-2%	28	14%	4	1.0	-9%
CN(C)CCNC(=O)C(=O)NCC1OCCN1S(=O)(=O)c1ccc(F)cc1 (centres undefined)	-0.4%	?	6	nt	nt	nt	nt
COc1cc(C(=O)CSc2nnc(-c3ccc(O)cc3)n2CC2CCCO2)ccc1NC(C)=O (centres undefined)	0.4%	11%	8	?	-3	2.0	0%
Cc1nnc(C)n1/N=C/c1ccc(C(=O)O)cc1	-1.1%	0%	-4	4%	16	1.5	7%
N#Cc1ccc(OCC(=O)N2CCN(S(=O)(=O)c3cccc(Cl)c3)CC2)cc1	1.1%	?	7	nt	-9	nt	-6%
CC(OC(=O)c1nccnc1N)C(=O)Nc1ccc(S(=O)(=O)N2CCCC2)cc1 (centres undefined)	3.1%	-3%	-2	nt	-3	nt	8%
CN(C)N1C(N)=C(C#N)C(c2cccnc2)C2=C1CCCC2=O (centres undefined)	-6.6%	-6%[15.4 µM]	1	-10%	?	-1.2	-9%
Cc1ccc2nc(-c3ccc(NC(=O)Cc4cccs4)cc3)[nH]c2c1	?	9%	5	15%	-46	-0.5	3%
CC1C=CC(C)C(C(=O)O)C1C(=O)O (centres undefined)	-3.9%	-14%	-2	15%	?	3.4	7%
CCn1nnc2c(=O)oc3ccccc3c21	nt	-2%[15.4 µM]	9	19%	-4	-7.5	-20%
COc1ccc(-c2cc(C3CCN(c4ccc(C(C)=O)cc4[N+](=O)[O-])CC3)[nH]n2)cc1	2.7%	17%	-1	-8%	nt	0.2	?
CC(C)c1ccc(OC(=O)c2ccc3c(=O)n4c(nc3c2)CCC4)cc1	0.7%	-3%[15.4 µM]	-12	nt	-24	nt	-9%
Cn1c(=O)[nH]c(=O)c2c1nc1n2CC(COc2ccc3ccccc3c2)O1 (centres undefined)	nt	6%[15.4 µM]	20	0%	24	2.6	-12%
Fc1ccc(-c2csc3[n+]2CCS3)cc1	1.3%	-1%	20	25%	-3	1.3	-6%
Cc1ccc(S(=O)(=O)CCC(=O)OCc2ccc(S(=O)(=O)C(C)C)cc2)cc1	0.6%	-1%	-6	7%	-2	3.9	-5%
O=C1CC2(CCCC2)Oc2ccccc21	4.4%	nt	-22	nt	nt	nt	8%
O=c1c(-c2ccco2)[n+]([O-])c2ccccc2n1OCc1c(F)cccc1F	nt	-3%[15.4 µM]	23	50µM*	-15	?	-2%
Nc1nc(-c2ccc(Br)cc2)cc(C(F)(F)F)n1	-26%	6%	-5	12%	-3	-0.2	6%
Cc1c[n+]([O-])cc(C)c1Oc1ccccc1	1.1%	nt	-6	nt	25	nt	10%
Cc1cc(C)cc(N(CCC#N)C(=O)COC(=O)c2ccccc2SCC(=O)N2CCCC2)c1	-2.4%	9%	6	-5%	9	nt	-13%
c1ccc(CN2CCN(c3ncnc4c3[nH]c3ccccc34)CC2)cc1	?	-31%[inhibitor]	-16	1%	-34	5.2	32µM*
O=C(NC1CCN(C(=S)Nc2ccc(F)cc2)CC1)c1ccco1	nt	10%	-14	2%	-1	-12	4%
COc1ccc(NC(=O)CSc2ncnc3sc(C)cc23)cc1	nt	21%	10	-6%	-2	-5.8	-4%
CC(C)CN1CCN(Cc2c[nH]c3ccccc23)CC1CCO (centres undefined)	-0.1%	-35%	-1	7%	-14	-2.8	9%
COc1ccc(S(=O)(=O)N2CCC(=O)N2)cc1	0.8%	-3%	1	8%	2	-0.4	3%
Cc1c(Cl)cccc1NC(=O)CSc1nc2c(c(=O)[nH]1)CCCC2	nt	nt	nt	9%	5	3.4	nt
COc1ccc(CN(Cc2ccccn2)C(=O)CN2C(=O)C(C)Oc3ccccc32)cc1 (centres undefined)	-0.3%	-34%[inhibitor]	15	16%	-13	1.8	-23%
N=c1c2c(-c3ccccc3)c(-c3ccccc3)oc2ncn1CCN1CCOCC1	-22%	10%	30	?	?	0.7	-11%

The list goes on.
SMILES	ClpP mod	gsp agonist	TRPML1 inh	Sfp PPTase inh	TRPV1 PAM	Menin-MLL FL inh	gsp antagonist
O=C(C1=C(O)C(=O)N(Cc2ccco2)C1c1cccc([N+](=O)[O-])c1)c1ccco1 (centres undefined)	-1.7%	-34%[inhibitor]	-5	?	-7	0.2	-1%
O=C(c1cc([N+](=O)[O-])ccc1N1CCCC1)N1CCCC1	nt	16%[15.4 µM]	4	17%	-12	-0.3	7%
COc1ccccc1NC(=O)CC1S/C(=N/N=C(\C)C2CCCCC2)NC1=O (centres undefined)	-3.4%	1%	-18	-16%	-23	nt	-16%
Cc1nn(C)c(Cl)c1CN1CCCC(C(=O)Nc2cccc(-n3cccn3)c2)C1 (centres undefined)	-0.7%	-12%	-11	-2%	0	-0.5	-11%

Profiles as entered above. Order of values: ClpP mod	gsp agonist	TRPML1 inh	Sfp PPTase inh	TRPV1 PAM	Menin-MLL FL inh	gsp antagonist
O=C(C1=C(O)C(=O)N(Cc2ccco2)C1c1cccc([N+](=O)[O-])c1)c1ccco1 (centres undefined) is listed with -1.7%	-34%[inhibitor]	-5	?	-7	0.2	-1%
COc1ccccc1NC(=O)CC1S/C(=N/N=C(\C)C2CCCCC2)NC1=O (centres undefined) is listed with -3.4%	1%	-18	-16%	-23	nt	-16%
